Source: PubChem
Beta2AR agonist – agonists of human beta-2 adrenergic receptor inducing internalization; Am2.2-beta2AR cells, FAP receptor internalization, flow cytometry; reference of the scale not given here; response, % (test concentration not listed); actives 0.43% (n = 340,000); AID 504454;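 active = response above a set limit, near 3 SD of response in nonfluorescent compounds, cut at about 42% in these data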;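 note: stock transfer was 100 nL into about 11 µL; a reference agonist was the positive control; negative values mostly stem from fluorescent compounds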
ALR H2O2 inh – blocks human ALR sulfhydryl oxidase activity | P55789 | purified ALR, DTT oxidation, H2O2 HRP-luminol luminescence | inhibition, % (concentration not given with the values) | actives 3.8% (n = 290,000);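 active = mean and each replicate at 75% or more; inconclusive = only one of the two met; inactive = neither met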;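 note: stock transfer was 7.5 nL into about 7.5 µL; 0% = neutral wells and 100% = wells with inactivated enzyme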
Target sequence (P55789 whole entry, looked up): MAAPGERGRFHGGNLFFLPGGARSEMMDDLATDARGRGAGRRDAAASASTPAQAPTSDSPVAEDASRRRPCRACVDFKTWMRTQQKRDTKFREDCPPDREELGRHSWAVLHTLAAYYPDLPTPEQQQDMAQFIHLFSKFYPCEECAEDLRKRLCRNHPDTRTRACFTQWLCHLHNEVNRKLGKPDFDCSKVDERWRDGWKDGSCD
LANA-H2A inh – blocks KSHV LANA binding to histone H2A/H2B; Q9QR71; cell-free LANA-H2A/H2B peptide, fluorescence polarization; inhibition, % (concentration not given with the values); actives 0.6% (n = 320,000); AID 2629; in the data active = inhibition mostly above about 10%, no sharp cut-off; inactive = mostly below about 6.7%;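 note: stock transfer was 7.5 nL into about 10 µL; 0% = median of vehicle wells and 100% = median of positive control wells; one replicate is shown; the record names a cut of 25% in any replicate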
HNF4A DNA FP – change in binding of human HNF4 alpha to DNA; HNF4a-FITC DNA binding, fluorescence polarization, 1 h; actives 0.3% (n = 360,000); P41235; activity change, % at 10 µM; in the data active = activity change above about 30%, passing the limit was not always enough;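 note: controls were the assay level and a saturating level of protein; the project sought stronger binding though the title names inhibitors; some compounds called inactive have numbers as strong as hits; positive values seem to mean higher polarization but the record does not say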
Target sequence (P41235 whole entry, looked up): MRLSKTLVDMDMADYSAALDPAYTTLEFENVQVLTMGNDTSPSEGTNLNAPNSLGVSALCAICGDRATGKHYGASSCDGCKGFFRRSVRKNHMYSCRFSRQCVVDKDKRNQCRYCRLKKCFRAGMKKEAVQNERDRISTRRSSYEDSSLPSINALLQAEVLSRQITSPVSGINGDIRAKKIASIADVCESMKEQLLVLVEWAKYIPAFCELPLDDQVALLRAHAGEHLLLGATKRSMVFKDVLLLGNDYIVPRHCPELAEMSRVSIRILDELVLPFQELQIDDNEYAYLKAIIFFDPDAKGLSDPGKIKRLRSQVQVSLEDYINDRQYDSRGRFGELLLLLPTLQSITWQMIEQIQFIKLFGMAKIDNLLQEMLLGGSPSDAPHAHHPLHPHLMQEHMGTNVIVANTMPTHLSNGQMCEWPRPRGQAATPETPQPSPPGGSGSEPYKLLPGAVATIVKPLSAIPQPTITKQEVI
FGF22 binding – shifts melting point of recombinant human FGF22. Q9HCT0. recombinant FGF22 thermal shift, SYPRO orange fluorescence; percent of sucrose octasulfate shift, DMSO zero. calls only at 9.99 µM. actives 1.5% (n = 340,000). AID 651658;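 active = melting point raised past a set limit in the mean and every replicate; inconclusive = no clear call; three in four hits are not shown here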
E coli growth – inhibitors of Escherichia coli growth; OD600, 23 h; active compounds read low; OD600 absorbance (test concentration not listed); actives 0.21% (n = 330,000);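 active = OD600 absorbance below the run mean of sample wells minus 3.6 SD, in any replicate, cut at about 0.56 in these data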;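 note: stock transfer was 300 nL into about 60 µL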
UCH37 DUB inh – blocks the human deubiquitinase UCH37. Q9Y5K5. purified proteasome/UCH37, Ub-AMC cleavage fluorescence. inhibition, % (concentration not given with the values). actives 0.33% (n = 330,000). AID 588478;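 active = mean of two replicates above 20%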;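 note: 0% = compound-free wells with enzyme and 100% = wells lacking proteasome; stock transfer was 100 nL into about 20 µL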
Target sequence (Q9Y5K5 whole entry, looked up): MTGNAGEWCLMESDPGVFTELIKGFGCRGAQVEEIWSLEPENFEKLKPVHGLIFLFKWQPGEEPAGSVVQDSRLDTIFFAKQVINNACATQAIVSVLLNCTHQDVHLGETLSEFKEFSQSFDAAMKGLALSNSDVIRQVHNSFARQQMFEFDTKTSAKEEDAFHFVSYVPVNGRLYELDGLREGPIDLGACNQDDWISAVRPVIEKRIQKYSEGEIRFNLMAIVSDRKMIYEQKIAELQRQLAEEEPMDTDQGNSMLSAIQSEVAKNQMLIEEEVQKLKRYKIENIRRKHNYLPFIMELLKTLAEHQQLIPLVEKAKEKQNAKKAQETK
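assay system = human UCH37 enzyme supplied as purified proteasome complex | amount = proteasome at 0.15 nM in the dispensed enzyme solution | schedule = 30 min compound-proteasome preincubation then 25 min substrate reaction, room temperature | measured by = fluorescence, ex 355 nm, em 460 nm | benchmarks = no-proteasome wells (full inhibition) and compound-free wells (no inhibition)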
* = called active by the depositor; i = inactive; ? = inconclusive; nt = not tested or not shown. This is a subset; rates above refer to the full screens.

SMILES | Beta2AR agonist | ALR H2O2 inh | LANA-H2A inh | HNF4A DNA FP | FGF22 binding | E coli growth | UCH37 DUB inh
CCN(CC)CCn1nc(C)nc1-c1ccccc1O | 2 | 1 | 0.5 | 1.3 | nt | 0.64 | 0.6
Cc1ccc(S(=O)(=O)N2CCN(C(=O)c3ccco3)CC2)cc1C | 0 | -4 | 10 | 0.1 | i | 0.67 | 3.6
CC(C)c1ccc(NC(=O)COC(=O)c2ccc(CN3CCCC3=O)cc2)cc1 | 2 | -43 | -0.8 | -4.0 | i | 0.63 | 3.8
COc1ccc(CN2[C@@H](CC(=O)O)c3cc(F)ccc3S2(=O)=O)cc1 | -2 | nt | 0.5 | 2.9 | i | nt | 4.2
O=C1C=C(c2cccc(O)c2)C[C@@H](c2ccc(F)cc2)C1 | 35 | -2 | -1.5 | 1.6 | i | nt | -0.5
COc1ccccc1-n1cnnc1SCC(=O)Nc1ccccc1 | -4 | -1 | -2.5 | -5.0 | i | 0.68 | -0.9
Cc1ccc(CNc2ccc3c(c2)nc(C)n3C)cc1 | 1 | nt | 2.5 | -3.0 | i | 0.66 | -6.7
O=[N+]([O-])c1cc(C(F)(F)F)ccc1Cl | -1 | -12 | -47 | -1.5 | i | 0.68 | 2.9
Cc1ccc(NC(=O)COC(=O)c2c(-c3ccccc3)noc2C)cc1 | 3 | 9 | 0.7 | -1.5 | i | 0.67 | -0.5
CC(C)(C)C(=O)Nc1ccc(-c2cn3cccnc3n2)cc1 | 1 | 3 | 1.6 | 3.4 | i | 0.69 | i
CCN(CC(=O)Nc1c(F)cccc1F)C(=O)c1cc(C)nc2ccccc12 | -3 | nt | 0.5 | -3.6 | i | 0.66 | 2.2
COc1ccccc1/C=N/NC(=O)c1ccc(Br)cc1 | -10 | -7 | 1.6 | 3.5 | i | nt | nt
Cn1ccc2cc(-c3ccc4ncnc(NCc5cccs5)c4c3)ccc21 | -4 | -1 | 0.5 | 0.1 | i | 0.69 | -6.5
O=C(CCN1C(=O)/C(=C/C=C/c2ccccc2)SC1=S)Nc1nc2ccccc2s1 | 8 | -2 | 11 | 12 | i | nt | nt
CN(C)C(=O)CN1CCN(C(=O)CCl)CC1 | -6 | -1 | 2.3 | 0.6 | i | 0.7 | 1.5

An excerpt of these results, with values ahead of the structure:
| Beta2AR agonist | ALR H2O2 inh | LANA-H2A inh | HNF4A DNA FP | FGF22 binding | E coli growth | UCH37 DUB inh | mol |
| --- | --- | --- | --- | --- | --- | --- | --- |
| -4 | -1 | -2.5 | -5.0 | i | 0.68 | -0.9 | COc1ccccc1-n1cnnc1SCC(=O)Nc1ccccc1 |
| 1 | nt | 2.5 | -3.0 | i | 0.66 | -6.7 | Cc1ccc(CNc2ccc3c(c2)nc(C)n3C)cc1 |
| -1 | -12 | -47 | -1.5 | i | 0.68 | 2.9 | O=[N+]([O-])c1cc(C(F)(F)F)ccc1Cl |
| 3 | 9 | 0.7 | -1.5 | i | 0.67 | -0.5 | Cc1ccc(NC(=O)COC(=O)c2c(-c3ccccc3)noc2C)cc1 |

(continued)
SMILES | Beta2AR agonist | ALR H2O2 inh | LANA-H2A inh | HNF4A DNA FP | FGF22 binding | E coli growth | UCH37 DUB inh
CCOC(=O)c1[nH]c2ccc(OC)cc2c1NC(=O)N1CCOCC1 | 4 | 25 | -1.6 | -0.3 | nt | 0.75 | -52
O=C(c1ccc(CS(=O)c2ccccc2Cl)o1)N1CCN(c2ccccn2)CC1 (stereo unspecified) | -11 | 5 | 2.6 | -2.3 | i | 0.71 | 2.8
COc1ccc(NC(=O)CN(C)C(=O)c2ccc(NC3CC3)c([N+](=O)[O-])c2)cc1 | -6 | 10 | -0.8 | -1.5 | i | 0.64 | 6.3
COc1ccccc1CNC(=O)CCCOc1cc(=O)n(C)c2ccccc12 | 2 | -14 | -5.2 | 1.7 | nt | 0.69 | 1.0
COC(=O)c1cc(Cl)c(NS(=O)(=O)c2ccccc2)cc1OC | 10 | -3 | 0.5 | 1.6 | nt | 0.73 | -14
COCCNC(=O)CSc1nnc2c(Cl)cc(Cl)cn12 | 0 | 3 | 6.6 | -1.1 | nt | 0.79 | -1.0
CC(C)(C)c1ccc(S(=O)(=O)N2CC(=O)Nc3ccccc32)cc1 | 3 | -46 | 1.8 | 1.1 | nt | 0.75 | 3.1
CC(NS(=O)(=O)c1cccc(C(=O)O)c1)C12CC3CC(CC(C3)C1)C2 (stereo unspecified) | 12 | nt | nt | -2.4 | i | 0.69 | 4.8
COc1ccc(CNC(=O)CN2CCN(C(c3ccccc3)c3ccccc3)CC2)cc1 | 2 | -22 | -4.7 | -3.5 | i | 0.7 | 5.0
Cc1ccc2oc(-c3cccc(NC(=O)c4ccc(Br)o4)c3C)nc2c1 | -9 | 3 | 1.0 | -1.5 | nt | 0.71 | -2.0
CC(C)Cc1nnc(NC(=O)c2ccc(N3CCCC3=O)cc2)s1 | -7 | -1 | -2.8 | 2.3 | nt | nt | nt
CCOC(=O)C1(CC2CCCCO2)CCN(C(=O)Nc2ccc3c(c2)OCO3)CC1 (stereo unspecified) | 1 | nt | -9.3 | 1.9 | i | 0.72 | 5.2
CCCCOc1ccc(-c2nnn(CC(=O)Nc3ncc(CC(=O)OCC)s3)n2)cc1 | -4 | -8 | -1.3 | -1.8 | nt | 0.7 | 2.8
COCC(=O)N(CCc1ccc(OC)c(OC)c1)Cc1nc2ccccc2c(=O)[nH]1 | -3 | -8 | 1.5 | 1.8 | nt | 0.69 | 4.2
C=CCn1c(C(CC(C)C)CC(C)O)n[nH]c1=S (stereo unspecified) | 3 | ? | 3.4 | -0.9 | i | 0.69 | 5.9
CCCCOc1cccc(/C=N/NC(=O)c2csc(C)c2C)c1 | -5 | -5 | -2.5 | -1.4 | nt | nt | nt
COc1ccccc1Oc1ccc(S(=O)(=O)NCc2ccccn2)cc1 | 8 | -15 | 2.7 | 2.9 | nt | 0.73 | -0.4
O=C(O)C1C2C=CC(C2)C1C(=O)Nc1cccc(Cl)c1 (stereo unspecified) | -2 | -3 | 4.3 | 1.1 | i | 0.64 | 3.7
CCOC(=O)c1oc2cc(O)cc(C)c2c(=O)c1-c1cscn1 | 4 | 6 | 26* | -1.7 | nt | 0.7 | 8.3
O=C(COc1ccc(Br)cc1CNCCCN1CCOCC1)Nc1ccccc1 | -3 | -4 | -5.5 | 3.1 | i | 0.68 | 2.5
COc1ccccc1C(CNC(=O)c1ccc(OCc2c(C)noc2C)cc1)N1CCCC1 (stereo unspecified) | -2 | -7 | -1.8 | 1.8 | i | 0.68 | -1.0
COc1cccc(OCC(O)CN2CCN(C(c3ccccc3)c3ccccc3)CC2)c1 (stereo unspecified) | 6 | -10 | 0.3 | 2.6 | i | 0.53 | 9.8
C=CCOc1ccccc1C1C2=C(CC(C)(C)CC2=O)Nc2c1c(=O)n(C)c(=O)n2C (stereo unspecified) | 0 | 10 | 0.3 | -0.9 | nt | 0.75 | -65
Cc1ccc(-c2ccc(CCC(=O)O)n2NC(=O)c2ccc([N+](=O)[O-])cc2)cc1 | 0 | 20 | -2.3 | -4.2 | i | 0.7 | 1.0
CCc1noc(C)c1C(=O)N1CCN(S(=O)(=O)c2cc(C)ccc2C)CC1 | 2 | 0 | -2.8 | -1.4 | i | 0.69 | -1.7
CCc1nnc(NC(=O)CSc2nc3cccnc3n2Cc2ccccc2)s1 | -7 | -17 | -2.2 | 3.2 | nt | 0.71 | 3.7
CC(C)N(C(=O)CSc1n[nH]c(=O)n1CCc1ccccc1)C(C)C | 9 | 2 | 3.5 | -4.9 | i | 0.66 | 5.3
CCOC(=O)c1c(C)[nH]c(C2=NNC(=Nc3ccccc3)SC2)c1C | -3 | nt | nt | 5.8 | i | 0.7 | -1.8
CC(C)(C)c1cc(NC(=O)Nc2ccccc2OC(F)(F)F)no1 | 12 | nt | -2.0 | 0.3 | i | 0.63 | 7.4
O=C(NCc1ccccc1)c1ccc2c(=O)n(CCCN3CCCC3=O)c(=S)[nH]c2c1 | 3 | 45 | -0.3 | -1.8 | nt | 0.71 | 3.9
O=C(O)c1cccc(COc2cccc3ccccc23)c1 | 1 | -25 | -0.8 | -1.6 | i | 0.64 | 3.2
Cc1c(OCC(=O)N(C)c2ccccc2)ccc2c3c(c(=O)oc12)CCC3 | 3 | -3 | 0.4 | -3.5 | i | 0.67 | -19
N=c1sccn1CC(=O)Nc1ccc(Cl)c(S(=O)(=O)N2CCOCC2)c1 | -4 | -14 | -3.0 | -0.2 | nt | 0.73 | 4.5
CSc1nc(N)c(C#N)c(-c2ccccc2Cl)c1C#N | 3 | -9 | -2.0 | -0.1 | nt | 0.71 | -2.4
CCn1c(SCC(=O)N2CCCCC2)nc2c(c1=O)SCC2 | -7 | 14 | -17 | -0.9 | i | 0.73 | 5.0
Cc1nnc(NC(=O)c2ccccc2Oc2ccccc2)s1 | -11 | nt | -4.8 | 6.7 | i | 0.67 | -2.8
COc1ccc(NC(=O)N2CCC(Cc3ccccc3)CC2)cc1 | 5 | -10 | -1.8 | -2.2 | i | 0.69 | 5.5
CC(C)(C)c1ccc(N/N=C(\C#N)S(=O)(=O)C(C)(C)C)cc1 | 1 | 4 | 1.5 | -7.6 | i | nt | nt
CC1CCN(C(=O)CSc2ccc(-c3ccc4c(c3)OCCO4)nn2)CC1 | -2 | 30 | -1.0 | -0.9 | i | 0.66 | 2.3
CN(CC(=O)NCCCc1ccccc1)S(=O)(=O)c1ccc(Br)cc1 | -3 | -4 | -1.5 | 0.6 | i | 0.66 | 2.2
Cc1cc(C)c(C)c(S(=O)(=O)NCc2ccc(C(=O)NCC3CCCO3)cc2)c1C (stereo unspecified) | -3 | 0 | 4.3 | 2.7 | i | 0.67 | -0.1
O=C(NCc1ccco1)Nc1cccc(-c2ccccc2)c1 | -5 | nt | nt | -1.1 | i | 0.72 | 0.5
CC(C)c1ccc(OCc2ccc(C(=O)NN3CCN(C)CC3)o2)cc1 | 2 | nt | 1.8 | -2.8 | i | 0.67 | 5.2
CSCc1cc(N2CCOCC2)nc(-c2ccccc2)n1 | -5 | nt | -1.7 | 2.4 | i | 0.62 | 2.1
O=C(CSc1ncn(-c2ccccc2)n1)c1cccs1 | -7 | 35 | -1.2 | 1.4 | nt | 0.73 | 1.6
COc1ccccc1NC(=O)N(CCN1CCOCC1)Cc1cc2cc(C)cc(C)c2[nH]c1=O | 2 | -3 | -1.8 | -1.2 | i | 0.69 | -4.4
CCc1nnc(NC(=O)CSCc2cc(=O)n3nc(C)sc3n2)s1 | 1 | -3 | 3.9 | -2.0 | i | 0.68 | 4.4
O=C(CCSCc1ccc(Cl)cc1)NCc1ccco1 | 5 | 55 | -1.7 | -2.5 | i | 0.71 | 3.3
CNc1ccccc1-c1nc2ccccc2n(C)c1=O | -16 | ? | 0.7 | -1.5 | nt | 0.78 | 10
O=C1c2ccccc2C(=O)N1CC1c2ccccc2CCN1C(=O)CN1CCOCC1 (stereo unspecified) | -24 | -10 | -2.1 | 2.9 | i | 0.73 | 4.7
C=CCSc1nnc(-c2nnc(SCC=C)n2-c2ccccc2)n1-c1ccccc1 | -10 | -4 | -3.0 | 1.0 | nt | 0.7 | -0.3
CN(C)CCCn1c(NC(=O)C2CCCCC2)nc2ccccc21 | -3 | -4 | 0.1 | -1.8 | nt | 0.71 | 4.2
Cc1cccc2nc(CSc3nnc(N)s3)cn12 | 4 | -16 | 2.3 | 1.1 | i | 0.65 | -0.1
CCOC(=O)C1=C(C)Nc2sc(C(=O)c3ccc(C)cc3)c(N)c2C1c1ccc(C(=O)OC)cc1 (stereo unspecified) | -1 | 2 | 0.9 | 12 | i | 0.74 | -34
